UUG fidelity – yeast start codon fidelity modulation; activity score, % at 18.7 µM; AID 602363; S. cerevisiae UUG-firefly luciferase reporter, luminescence/redox ratio; 0.13% of 350,000 active;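 active = replicate mean at a twofold rise or more, about +100% in these data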;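 note: firefly luciferase made from a UUG start codon reports start codon fidelity; reporter light over untreated wells divided by growth signal over untreated wells; some hits fall short of that in this replicate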
Env fusion inh – HIV envelope-mediated fusion inhibition; inhibition, % at 12.3 µM; 1.1% of 360,000 active; HeLa-JRFL Env/CEM21 cell fusion, luciferase; AID 651610;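 active = mean replicate inhibition score of at least 50 and every replicate individually at or above 50; inconclusive = only one of the two criteria met; inactive = mean below 50 and not all replicates reaching 50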;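 note: 0% = plate neutral controls and 100% = maraviroc near 300 nM; one replicate is shown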
CSC inhib – cancer stem cell inhibition. cancer stem cell-like cells viability, luminescence. inhibition, % at 7.5 µM. 1.1% of 300,000 active. AID 2717;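 active = mean at 75% or more and at least half the replicates too; inconclusive = mean and replicates disagree; tested in HMLE shEcad cells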;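 note: 0% = median of negative and 100% = median of positive control wells; the first replicate is given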
Rce1 inh – yeast Ras-converting enzyme inhibition. Q03530. yeast membranes, quenched prenylated peptide cleavage fluorescence. calls only. 0.27% of 290,000 active. AID 2563;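 active = fall in fluorescence gain of 50% or more versus controls, with final raw signal at or below 3038400; inconclusive = same 50% fall but final raw signal above 3038400; inactive = fall in fluorescence gain under 50%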;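 note: plate controls were neutral control wells for no effect and wells lacking membranes for full effect; tested at 10 µM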
Target sequence (Q03530 whole entry, looked up): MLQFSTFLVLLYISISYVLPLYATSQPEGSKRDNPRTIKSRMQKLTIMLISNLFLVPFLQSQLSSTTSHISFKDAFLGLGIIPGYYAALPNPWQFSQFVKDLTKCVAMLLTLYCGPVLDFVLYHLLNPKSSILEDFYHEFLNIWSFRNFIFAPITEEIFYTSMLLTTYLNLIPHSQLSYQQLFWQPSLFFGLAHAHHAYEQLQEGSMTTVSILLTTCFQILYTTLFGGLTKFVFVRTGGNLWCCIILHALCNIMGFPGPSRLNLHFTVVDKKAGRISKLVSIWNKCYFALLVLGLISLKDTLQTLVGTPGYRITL
MT1-MMP act inh – blocks activation of human MT1-MMP. P50281. HT1080 RFP-PRO-GFP cells, GFP/RFP ratio fluorescence, overnight; percent of plate control window, DMSO zero. GFP/RFP ratio change, % at 20 µM. 0.061% of 360,000 active;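 active = GFP/RFP ratio change of at least 30% with cell ATP level not reduced by more than half and red fluorescence within 50% of control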; note: strong numbers were not always called active
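Assay system: HT1080 cells carrying an RFP-PRO-GFP reporter | Dosing: Single dose of 20 µM compound, 1% DMSO final | Incubation: Cells overnight before dosing, compound overnight, 37 °C, 5% CO2 | Evaluation: GFP/RFP fluorescence ratio | Control set: DMSO and RFP-L50D-GFP cell wells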
PABP FP inh – PABP-poly(A) binding inhibition; inhibition, % at 35 µM; P11940; 1% of 290,000 active; AID 2014; PABP-poly(A) RNA binding, fluorescence polarization;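 active = 50% or more with normal probe brightness, or confirmed in later tests; inconclusive = above 50% with abnormal brightness, or retests that disagree; inactive = below 50% or failed in later tests; about a fifth of its hits are not listed in these tables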;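 note: calls also rest on retests at 20 µM and on dose response follow-up; controls were probe without protein and protein plus probe with vehicle; some compounds called inactive have numbers as strong as hits; many hits fall short of the cut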
eIF4H inh – inhibitors of RNA binding by human eIF4H | Q15056 | eIF4H fluorescence polarization binding assay | inhibition, % at 35 µM | 0.94% of 290,000 active | AID 2012;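 active = 50% or more with normal probe brightness, or confirmed in later tests; inconclusive = above 50% with abnormal brightness, or retests that disagree; inactive = below 50% or failed in later tests; about a fifth of its hits are not listed in these tables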;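 note: calls also rest on retests at 20 µM and on dose response follow-up; 0% = protein and probe with vehicle and 100% = probe without protein; strong numbers were not always called active; many hits fall short of the cut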
eIF4H inh retest – recorded beside eIF4H inh, whose call it bears; inhibition, %; compound at 20 µM; confirmation average;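 mean of two retest wells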
PABP FP inh retest – second read-out of PABP FP inh, no call of its own (marks repeat the call); inhibition, %; compound at 20 µM; confirmation repeats;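 mean of two retest wells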
MT1-MMP act inh RFP – further read-out of MT1-MMP act inh, marked with its call; RFP signal change, %; measured here: RFP expression control read;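 0 = vehicle wells; hits needed this value within 50% of zero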
The depositor's hits bear a star; i = inactive; u = inconclusive; x = not tested or not shown; + = active, no number. This is a subset; the hit share may differ from the screen's.

SMILES	UUG fidelity	Env fusion inh	CSC inhib	Rce1 inh	MT1-MMP act inh	MT1-MMP act inh RFP	PABP FP inh	eIF4H inh	others
O=C(CC[C@H]1O[C@@H](n2cnc3c(NC(=O)c4ccccc4)ncnc32)[C@H](O)[C@@H]1O)N[C@@H](CO)Cc1c[nH]c2ccccc12	-9	-7	x	x	6	9	x	x
CC(C)(C)c1ccc(C(=O)NCC(=O)N/N=C/c2ccccc2OCC(=O)O)cc1	x	-2	0	i	-6	1	-6	6
O=C(Nc1cccc(S(=O)(=O)C(F)F)c1)c1ccc(S(=O)(=O)N2CCOCC2)cc1	3	x	3	i	-1	-5	8	-12
CC(C)c1ccc(NC(=O)C2CC3CCC2C3)cc1 (stereo not given)	-1	-45	39	i	-3	-2	9	8
Cc1ccc(C)c2[nH]c(=O)c(CN(CC3CCCO3)C(=O)NC3CCCCC3)cc12 (stereo not given)	7	24	-9	i	1	-4	-9	-1
Cc1ccc(N=C2c3ccccc3C(=O)C2[N+](=O)[O-])cc1C (stereo not given)	x	-5	-4	i	0	-2	6	-7
CC1CCc2c(sc(/N=C/N(C)C)c2C#N)C1 (stereo not given)	x	-4	-7	i	3	1	4	7
O=C(Nc1ccc(C(=O)NCc2ccccc2)cc1)C1=CSCCO1	-10	-9	-7	i	8	6	1	-10
O=C(COC(=O)c1cncc(Br)c1)NC1CC1	-4	0	-5	i	2	4	14	8
CCOC(=O)C1(C)CCN1C(=O)c1ccco1 (stereo not given)	-22	13	x	x	-2	4	x	x
O=C(N/N=C/c1sc(N2CCOCC2)nc1-c1ccccc1)c1cccc(S(=O)(=O)N2CCOCC2)c1	x	88*	24	i	-27	-21	u	u
NC(=S)n1[nH]c(-c2ccc([N+](=O)[O-])cc2)c(N=Nc2ccc(O)cc2)c1=O	-16	-27	15	i	24	-9	12	-5
CC1(C)CC(=O)C(C=NCCCn2ccnc2)=C(O)C1	-20	-8	-6	i	-2	5	-1	-5
CC1=C(C(=O)N(C(C)C)C(C)C)CC(CC(=O)NCCCN(C)C)C(=O)N1CCCN1CCCC1=O (stereo not given)	-7	-4	x	x	3	7	x	x
Cc1c(C)c(C)c(CN2CCSCC2)c(C)c1C	-19	3	2	i	0	3	-1	-1
COc1ccccc1NC(=O)CCc1nc2ccccc2s1	x	1	-9	i	0	2	-1	1
C/C(=N/NC(=O)C1COc2ccccc2O1)c1ccco1 (stereo not given)	x	8	8	i	-2	3	-5	-8
CCn1c(=O)c2cc(C(=O)N3CCCC3)sc2c2ccccc21	x	x	x	i	x	x	6	-6
O=C(CCl)NC(=O)NC12CC3CC(CC(C3)C1)C2	10	-7	-2	i	1	4	-5	-2
COC(=O)C(CC(=O)c1ccccc1)CC(=O)c1ccccc1	16	-14	-6	i	-1	-4	5	-6
O=C(c1ccccc1)C1CC=CCC1C(=O)c1ccccc1 (stereo not given)	1	14	x	x	-4	-2	x	x
CCCCNc1c(-c2ccc(SC(C)CC)c(OC)c2)nc2ccc(C)cn12 (stereo not given)	-23	39	123*	+	0	-12	x	x
Cc1ccc(C)c(NS(=O)(=O)c2cc(C(=O)NCc3ccccn3)ccc2Cl)c1	-26	-13	-12	i	1	-6	-5	-8
Cc1cc(C(=O)NCCc2ccccc2)ccc1[N+](=O)[O-]	-22	x	11	i	3	-2	-14	-3
COc1cc2c(=O)nc3n(c2cc1OC)C(c1ccccc1)N=C(N)N3 (stereo not given)	x	x	x	i	x	x	4	-3
CCCCn1c(=O)c(CCC(=O)OCC(=O)NC(=O)NCCOC)nc2ccccc21	x	22	-1	i	-1	4	4	-4
O=C(N/C(=C\c1ccc(Br)cc1)C(=O)N1CCOCC1)c1ccc(Br)o1	-16	1	x	i	4	2	-14	-8
COc1ccc2cc(Br)ccc2c1CC(=O)NCCCN1CCOCC1	x	5	0	i	8	-13	x	x
Cc1ccccc1NC(=O)CN1C(=O)NC(C)(c2ccc3c(c2)OCO3)C1=O (stereo not given)	-10	x	-5	i	5	3	0	3
COc1ccc(-n2ccnc2SCC(=O)NCc2ccc(F)cc2)c(OC)c1	-12	17	-16	i	x	x	9	-1
CCC(C(=O)NC1CCCC1)N(C(=O)c1snc(C(N)=O)c1N)c1ccc2c(c1)OCCO2 (stereo not given)	-1	x	0	i	2	-1	8	1
COc1ccc(CCNC(=O)c2csc3c2CCCC3)cc1	1	1	1	i	-1	-3	3	-13
COc1ccc(OC)c(NC(=O)C2CCN(S(=O)(=O)c3ccc4c(c3)CC(C)N4C(C)=O)CC2)c1 (stereo not given)	-2	3	-7	i	0	-2	8	-11
Cc1cccc(C)c1NC(=O)CNC(=O)COC(=O)c1ccc(Cl)s1	0	4	-15	x	-3	-2	x	x
Cc1ccc(-c2ccc(SCC(=O)c3ccccc3)nn2)cc1	-11	x	-17	i	-5	-6	-5	-7
COc1cc(C(=O)Nc2ccc(C(F)(F)F)cc2)ccc1OCC(=O)N1CCOCC1	-7	-18	x	x	5	2	x	x
CC1(C)C2([N+](=O)[O-])CN3CC1([N+](=O)[O-])CN(C2)C3c1ccccc1 (stereo not given)	x	7	-10	i	3	1	-1	-2
CC1CN(CCC(=O)Nc2ccc3c(c2)CCC3)CC(C)O1 (stereo not given)	4	-22	-12	i	3	2	15	5
Cc1scc(C(=O)NNC(=S)NCC2CCCO2)c1C (stereo not given)	-19	-33	-3	i	9	-1	-2	-7
COCCCNC(=S)NNC(=S)Nc1ccc(OC)cc1	-16	0	-5	i	2	2	0	-3
O=C(Nn1cnc2ccccc2c1=O)c1c(F)cccc1F	-18	-16	-13	i	1	5	12	7
CCCCOC(=O)c1ccc(NC(=O)Nc2ccc(OC)c(OC)c2)cc1	-8	x	x	i	-1	-6	0	-3
COC(=O)c1cn(-c2ccc(F)cc2)c(=O)c2ccccc12	x	21	-5	i	2	3	-11	-9
O=c1c2[nH]c3ccccc3c2ncn1Cc1ccccn1	-9	-12	0	i	10	4	1	-5
CC(NC(=O)CC1CCCCC1)c1ccccc1 (stereo not given)	-14	24	-11	i	0	-2	5	0
O=C(Nc1ccnn1C1CCN(C/C=C/c2ccccc2)CC1)C1CCCC1	2	-12	0	i	-2	2	2	7
C=CCNC(=O)c1c(N)n(-c2ccc3c(c2)OCO3)c2nc3ccccc3nc12	-17	x	x	i	-4	6	86	47	eIF4H inh retest=49;PABP FP inh retest=30
COP(=O)(OC)c1nc(-c2cccc3ccccc23)oc1N1CCOCC1	x	x	-32	i	0	2	-7	-8
O=C(NNC(=S)NC(=O)c1ccc(Br)cc1)c1ccc([N+](=O)[O-])cc1	-17	0	8	i	5	3	9	16
COc1cccc(NC(=O)CN2CCC(NC(=O)c3ccccc3C)CC2)c1	-6	34	x	x	-1	4	x	x
Cc1cc(C)nc(N2CCC(C(=O)NNC(=O)Cc3ccccc3)CC2)n1	-15	-17	-8	i	3	0	5	-12
COc1ccc(-c2cc(Nc3ccccc3NC(=O)C(F)(F)F)n(CCC#N)n2)cc1	-15	x	1	i	4	0	6	2
COc1ccc(CCNC(=O)c2ccc(N3CCCC3=O)cc2)cc1OC	x	x	2	i	18	1	8	2
COCCN(C(=O)COC(=O)COc1ccc(Cl)c(C)c1)c1c(N)n(Cc2ccccc2)c(=O)[nH]c1=O	-6	-18	-12	i	-2	3	6	-5
CCOc1cc(S(=O)(=O)n2cnc(C)c2)ccc1Cl	x	5	11	i	-9	4	-2	-6
O=C(O)CCC(=O)Nc1ccc(-c2csc(Nc3cccc4ccccc34)n2)cc1	-18	x	-8	x	-2	4	x	x
CC1CCCCC12NC(=O)N(CC(=O)OCc1ccc(Br)cc1)C2=O (stereo not given)	-11	-6	x	x	-2	-3	x	x
Cn1cnc([N+](=O)[O-])c1Nc1ccccc1O	-6	x	-8	i	2	3	0	-7
CN(C)c1nc(-c2ccccc2)nc(-c2ccc(Cl)cc2)c1C#N	-9	x	0	x	-8	6	3	-3
COC(=O)c1c(C)[nH]c(C(=O)OCC(=O)NCC(C)C)c1C	-18	x	-12	i	6	-1	3	-2

13 structures from above, sorted by count of non-hydrogen atoms, descending:
SMILES	UUG fidelity	Env fusion inh	CSC inhib	Rce1 inh	MT1-MMP act inh	MT1-MMP act inh RFP	PABP FP inh	eIF4H inh	others
COCCN(C(=O)COC(=O)COc1ccc(Cl)c(C)c1)c1c(N)n(Cc2ccccc2)c(=O)[nH]c1=O	-6	-18	-12	i	-2	3	6	-5
COc1ccc(-c2cc(Nc3ccccc3NC(=O)C(F)(F)F)n(CCC#N)n2)cc1	-15	x	1	i	4	0	6	2
O=C(O)CCC(=O)Nc1ccc(-c2csc(Nc3cccc4ccccc34)n2)cc1	-18	x	-8	x	-2	4	x	x
C=CCNC(=O)c1c(N)n(-c2ccc3c(c2)OCO3)c2nc3ccccc3nc12	-17	x	x	i	-4	6	86	47	eIF4H inh retest=49;PABP FP inh retest=30
O=C(Nc1ccnn1C1CCN(C/C=C/c2ccccc2)CC1)C1CCCC1	2	-12	0	i	-2	2	2	7
Cc1cc(C)nc(N2CCC(C(=O)NNC(=O)Cc3ccccc3)CC2)n1	-15	-17	-8	i	3	0	5	-12
O=C(NNC(=S)NC(=O)c1ccc(Br)cc1)c1ccc([N+](=O)[O-])cc1	-17	0	8	i	5	3	9	16
CN(C)c1nc(-c2ccccc2)nc(-c2ccc(Cl)cc2)c1C#N	-9	x	0	x	-8	6	3	-3
COC(=O)c1c(C)[nH]c(C(=O)OCC(=O)NCC(C)C)c1C	-18	x	-12	i	6	-1	3	-2
O=c1c2[nH]c3ccccc3c2ncn1Cc1ccccn1	-9	-12	0	i	10	4	1	-5
CCOc1cc(S(=O)(=O)n2cnc(C)c2)ccc1Cl	x	5	11	i	-9	4	-2	-6
CC(NC(=O)CC1CCCCC1)c1ccccc1 (stereo not given)	-14	24	-11	i	0	-2	5	0
Cn1cnc([N+](=O)[O-])c1Nc1ccccc1O	-6	x	-8	i	2	3	0	-7

Following part.
SMILES	UUG fidelity	Env fusion inh	CSC inhib	Rce1 inh	MT1-MMP act inh	MT1-MMP act inh RFP	PABP FP inh	eIF4H inh	others
O=C(CSc1nnc2c(n1)[nH]c1ccccc12)Nc1cccc(S(=O)(=O)N2CCOCC2)c1	1	11	-8	i	9	-11	10	-6
CCOc1ccccc1N1CCN(C(=O)c2ccc(-c3ccc(OC(C)=O)cc3)cc2)CC1	6	18	63	i	-4	-2	1	-3
Cc1ccc(F)cc1NC(=O)C1CC(=O)N(Cc2ccccc2)C1 (stereo not given)	-2	-40	x	x	0	4	x	x
CCOC(=O)c1ccccc1NC(=O)c1c(O)c2ccccc2n(CC)c1=O	-1	x	x	i	0	-4	0	-7
CC(C)C[C@@H]1CN=C(N)N1C[C@@H]1CCCN1C[C@@H](C(C)C)N1C[C@@H](Cc2ccccc2)N(CCCC2CCCC2)C1=N	8	0	x	x	-1	2	x	x
CCN1CCC2(CCN(C(=O)c3cc(COc4cc(C)ccc4C)on3)C2)C1 (stereo not given)	-7	10	55	i	2	3	-11	-8

A portion of the results above:
SMILES	UUG fidelity	Env fusion inh	CSC inhib	Rce1 inh	MT1-MMP act inh	MT1-MMP act inh RFP	PABP FP inh	eIF4H inh	others
COc1ccc2cc(Br)ccc2c1CC(=O)NCCCN1CCOCC1	x	5	0	i	8	-13	x	x
Cc1ccccc1NC(=O)CN1C(=O)NC(C)(c2ccc3c(c2)OCO3)C1=O (stereo not given)	-10	x	-5	i	5	3	0	3

High-throughput results (PubChem)
